High-throughput results (PubChem)
NS1 function inh: influenza NS1 inhibition | S. cerevisiae slowed by influenza A NS1, growth recovery by OD600 | Potency, µM (doses to about 46.1 µM), inactives show at the highest dose activity, positive = more growth | 270,000 tested, 0.4% active; further: actives are rising curves; nearly all actives have a fitted effect of over 50% in size
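OD600 was taken as the measure of yeast growth restored by compound in an NS1-expressing S. cerevisiae strain. Cells had been washed out of glucose medium and diluted 1:100 into galactose -URA medium, pH 6.0.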
Lassa entry inh: inhibitors of Lassa virus binding or cell entry | Lassa virus pseudotype entry inhibition, cell reporter; control for the full effect not named in the record | Potency, µM (doses to about 37.9 µM), without a hit: top-dose activity change, negative = inhibition, most hits filed as inhibitors | 300,000 tested, 1.2% active | AID 540256; active means well fitted inhibition curve with a large enough effect; inconclusive means small, poorly fitted or top-dose-only effect, or effect the other way; inactive means flat fitted curve, though single readings scatter; tested in HEK293 cells; further: on the % scale 0 is the no-effect control and ±100 the full control effect; nearly all actives have a fitted effect of over 50% in size; luciferase read-out
SARS PLpro yeast: inhibitors of SARS-CoV papain-like protease in yeast. S. cerevisiae expressing SARS-CoV PLpro, growth rescue; control for the full effect not named in the record. Potency, µM (titrated, usually from 32.9 µM), for inactives: at the highest dose activity, positive = growth rescue. 330,000 tested, 0.19% active. AID 485353; further: 0% is about no effect; nearly all actives have a fitted effect of over 55% in size; growth read by luminescence after 48 h
Cruzain inh noDet: blocks cruzain activity in detergent-free assay. Potency, µM, without a hit: max response, negative = inhibition, usual class: inhibitors. purified cruzain, Z-FR-AMC fluorescence, no detergent. 200,000 tested, 2.3% active. AID 1476; active means well fitted curve in the direction sought with a large enough effect; inconclusive means small, poorly fitted or top-dose-only effect, or another doubt; inactive means no such curve, though single readings can be large; an effect the other way counts as inactive or inconclusive;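 further: plate controls were enzyme without inhibitor for no effect and buffer without enzyme for full effect; nearly all actives have a fitted effect of over 40% in size; top concentration of the series not given in the record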
Target sequence (P25779 123-467 limits assumed): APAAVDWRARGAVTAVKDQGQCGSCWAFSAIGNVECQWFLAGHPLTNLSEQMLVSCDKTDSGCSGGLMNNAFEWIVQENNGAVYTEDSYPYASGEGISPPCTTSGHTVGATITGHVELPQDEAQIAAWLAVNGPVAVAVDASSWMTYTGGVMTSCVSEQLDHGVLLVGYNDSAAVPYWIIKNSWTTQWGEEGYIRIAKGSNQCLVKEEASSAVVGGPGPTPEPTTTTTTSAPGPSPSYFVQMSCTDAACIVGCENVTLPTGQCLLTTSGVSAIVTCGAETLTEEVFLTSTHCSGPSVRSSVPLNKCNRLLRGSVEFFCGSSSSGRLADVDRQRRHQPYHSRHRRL
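Detergent-free condition (0.00005% Triton X-100) in acetate buffer pH 5.5 with DTT. 1.5 nM enzyme and compound were pre-mixed 15 min, then 2 uM Z-FR-AMC substrate added; reaction progress from fluorescence change between first and third reads (60 s).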
StopGo reporter: FMDV 2A StopGo reporter, luciferase signal; human cells with a luciferase reporter of 2A StopGo recoding; control for the full effect not named in the record; Potency, µM (top dose mostly 57.9 µM), for the others: at the top dose signal change, negative = less light; 410,000 tested, 1.2% active; active = well fitted falling curve with a large enough effect; inconclusive = small, poorly fitted or top-dose-only effect; inactive = no such curve, though single readings can be large or run the other way; tested in HEK293T cells; further: on the % scale 0 is the no-effect control and ±100 the full control effect; nearly all actives have a fitted effect of over 45% in size; luciferase light after 4 h
Cruzain Triton: inhibitors of Trypanosoma cruzi cruzain with detergent; P25779; purified cruzain, Z-FR-AMC fluorescence, 0.01% Triton; Potency, µM, for the others: max response, negative = inhibition, hits mostly inhibitors; 200,000 tested, 0.43% active; AID 1478; active means well fitted curve in the direction sought with a large enough effect; inconclusive means small, poorly fitted or top-dose-only effect, or another doubt; inactive means no such curve, though single readings can be large; an effect the other way counts as inactive or inconclusive;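 further: plate controls were neutral wells for no effect and buffer without enzyme for full effect; nearly all actives have a fitted effect of over 40% in size; top concentration of the series not given in the record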
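Cysteine protease activity tested under reducing, mildly acidic conditions (100 mM sodium acetate pH 5.5, 5 mM DTT) plus 0.01% Triton X-100. Cruzain 1.5 nM; substrate Z-FR-AMC 2 uM; 15 min compound preincubation at room temperature.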
MARV entry inh: Marburg virus entry inhibition. Marburg virus pseudotyped entry inhibition, cell reporter; control for the full effect not named in the record; about a third of the inactives were read at about 46 µM. Potency, µM (titrated, usually from 37.8 µM), without a hit: at the highest dose activity change, negative = inhibition, usual class: inhibitors. 300,000 tested, 1.8% active. AID 540276; active = well fitted inhibition curve with a large enough effect; inconclusive = small, poorly fitted or top-dose-only effect, or effect the other way; inactive = flat fitted curve, though single readings scatter; tested in HEK293 cells; about a fifth of its hits are not listed in these tables; further: on the % scale 0 is the no-effect control and ±100 the full control effect; luciferase read-out
RE007 growth inh: less growth of the S. pombe RE007 Vpr strain. S. pombe RE007 Vpr strain, BacTiter-Glo ATP luminescence, 24 h; control for the full effect not named in the record. Potency, µM (highest dose often 92.2 µM), for inactives: top-dose activity change, negative = less growth. 360,000 tested, 0.21% active; active = well fitted falling curve with a large enough effect; inconclusive = small, poorly fitted or top-dose-only effect; inactive = no such curve, though single readings can be large or run the other way;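 further: on the % scale 0 is the no-effect control and ±100 the full control effect; nearly all actives have a fitted effect of over 50% in size; the assay follows cell death caused by Vpr and the record does not say whether a fall means rescue or toxicity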
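Fission yeast strain RE007, carrying one chromosomally integrated HIV-1 vpr copy, was seeded at OD 0.01 in PMG+AL medium with 23 nL pinned compound. After 24 h at 30 °C and 99% humidity, viability was read by BacTiter-Glo luminescence.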
* = called active by the depositor; ? = inconclusive; / = not tested or not shown; & = joins results of further samples; [ ] = remark or other dose. Unless noted, the call rests on the fitted dose curve; in most records, active means well fitted rising curve with a large enough effect; inconclusive means small, poorly fitted or top-dose-only effect; inactive means no such curve, though single readings can be large or run the other way. Potency means the concentration at half of the fitted maximal effect.

SMILES	NS1 function inh	Lassa entry inh	SARS PLpro yeast	Cruzain inh noDet	StopGo reporter	Cruzain Triton	MARV entry inh	RE007 growth inh
Cc1cc(/C=N/NC(N)=O)c(C)n1C1CCCCC1	2.7%	6.4%[46.1 µM]	-0.8%	/	27.1%	/	10.9%[46.1 µM]	2.4%
O=C(NCc1cccc(C(F)(F)F)c1)N1CCN(C(=O)c2ccccc2)CC1	/	-0.6%	-1.9%	/	-11.7%	/	0.8%	-1.5%
CC1(NC(=O)COc2ccccc2-c2ccccc2)CCS(=O)(=O)C1 (stereo unspecified)	-0.4%	-6.9%	-1.3%	6.2%	0.8%	6.8%	-26.9%	13.2%
CCOC(=O)N1CCN(C(=O)CCC(=O)c2ccc(OCC)cc2)CC1	7.4%	11.2µM*	4.9%	/	6.8%	/	13.5%[46.1 µM]	2.9%
O=C(Nc1ccc2c(c1)nc1n2CCOC1)C1CCCCC1	-4.1%	18.5%	-2.4%	1.2%	66.1%[activator]	1.1%	16.5%	4.9%
CCOc1ccc(N(CC(=O)NC2CCCC2)C(=O)CCCC(=O)Nc2ccccn2)cc1	0.9%	-24.0%	0.2%	10.3%	-4.0%	-3.3%	12.5%[46.1 µM]	9.5%
CC1CN(C(=O)c2cnn3c(C(F)F)cc(-c4ccccc4)nc23)CC(C)O1 (stereo unspecified)	-8.1%	-12.8%	4.1%	3.7%	-14.4%	0.1%	-27.5%	0.1%[3.69 µM]
CCN(CC)C(=O)COc1ccc(C=O)cc1OC	9.8%	-0.2%	2.0%	-11.9%	5.1%	-0.9%	3.2%	10.2%
CC(C)CNc1nc(N)c([N+](=O)[O-])c(NCC2CCCO2)n1 (stereo unspecified)	-9.9%	-9.0%	-4.4%	3.8%	-11.3%	-8.3%	-8.3%	-23.2%
CCC(=O)c1ccc(OCC(=O)NC2CCCC2)cc1	/	8.3%	-7.9%	/	8.2%	/	-2.8%	-10.1%
CC(C)(C)NC(=O)C1Cc2ccccc2CN1S(=O)(=O)c1ccc(F)cc1 (stereo unspecified)	/	11.8%	-4.9%	/	-18.1%	/	-3.5%[46.1 µM]	6.6%
CCN(CC)S(=O)(=O)c1ccc(NC(=O)c2ccccn2)cc1	-8.2%	-21.2%	-11.9%	-5.6%	53.4%[activator]	-3.0%	-21.4%[46.1 µM]	-0.9%
COc1ccccc1NC(=S)N1CCc2cc(OC)c(OC)cc2C1	1.0%	-1.6%	1.9%	6.5%	-23.4%	-2.0%	2.2%	-9.1%
COc1cccc(Cn2cc(-c3cccc(C(F)(F)F)c3)nn2)c1	-33.6%	/	-4.4%	/	19.0%	/	/	-10.3%
C=CCNC(=O)COC(=O)c1oc2ccccc2c1CSC1CCCCC1	-2.8%	-10.2%	28.8%	?	-13.8%	-4.6%	-1.1%	-26.8%
Cc1oc2ncn(CC(C)C)c(=O)c2c1C(=O)N1CCN(c2cccc(C(F)(F)F)c2)CC1	/	20.0%[46.1 µM]	/	26.6%	-19.1%	-6.1%	/	/
Cc1cccc2c1N(CCCOc1ccc(C(C)(C)C)cc1)C(=O)C2=O	?	/	-10.9%	24.6%	-24.5%	-6.5%	/	-1.6%
O=P(COCCOCCOCCOCP(=O)(c1ccccc1)c1ccccc1)(c1ccccc1)c1ccccc1	-7.1%	-2.1%	-2.9%	/	-5.8%	/	-0.8%	-10.5%
Cc1ccccc1NC(=S)NC(C)C(c1ccccc1)N1CCN(C)CC1 (stereo unspecified)	/	-0.4%	3.9%	/	-6.6%	/	?	-15.2%
CCOC(=O)CSc1nc2sc3c(c2c(=O)n1-c1ccc(C)cc1)CCN(C)C3	3.6%	/	0.4%	/	-18.0%	/	/	-5.6%
Cc1cccc(C)c1NC1=NC(=S)N(c2ccccc2)C12CCOC(C)(C)C2 (stereo unspecified)	11.5%	-2.6%	-0.5%	-5.3%	?	0.8%	0.4%	-4.6%
C=CCn1c(CNC(=O)c2cccs2)n[nH]c1=S	6.3%	?	-11.1%	0.4%	-15.1%	1.3%	?	7.5%
CC(=O)c1ccccc1NS(=O)(=O)c1cccc2nonc12	11.4%	/	4.1%	/	-14.0%	/	/	0.4%
Cc1ccc(S(=O)(=O)C(CNC(=O)C(C)C)c2cccs2)cc1 (stereo unspecified)	3.2%	/	8.4%	/	14.5%	/	/	9.0%
Cc1sc(N)c(C(=O)c2ccccc2Cl)c1C	1.3%	-9.9%	-1.4%	/	-20.3%	/	?	12.3%

Single values from the entries so far.
StopGo reporter, `CC(=O)c1ccccc1NS(=O)(=O)c1cccc2nonc12` = -14.0%
SARS PLpro yeast, `CC(C)(C)NC(=O)C1Cc2ccccc2CN1S(=O)(=O)c1ccc(F)cc1` (stereo unspecified) = -4.9%

(cont.)
SMILES	NS1 function inh	Lassa entry inh	SARS PLpro yeast	Cruzain inh noDet	StopGo reporter	Cruzain Triton	MARV entry inh	RE007 growth inh
COc1ccc(C(=O)NC2CC2)cc1OC1CCN(Cc2ccc(NC(C)=O)cc2)CC1	-4.6%	/	-5.1%	/	-1.5%	/	/	4.8%
O=C(Cn1cc2c(n1)CCCCC2)N1CCc2ccccc2C1	8.0%	/	1.1%	5.8%	-3.1%	1.8%	/	-7.6%
CCOC(=O)CN1CC23C=CC(O2)C(C(=O)N2CCN(c4ccc(F)cc4)CC2)C3C1=O (stereo unspecified)	-4.8%	1.2%	19.7%	8.2%	-8.0%	-0.6%	15.0%&15.0%	0.4%
Cc1cc(C)c(NC(=O)C2CCCN2C(=O)NC2CCCCC2)c(C)c1 (stereo unspecified)	17.9%	0.2%	15.7%	1.8%	26.9%	0.5%	2.6%	20.2%
CCOc1c2ccc(C(=O)NC3CCCc4ccccc43)cc2nn1C (stereo unspecified)	-8.4%	/	4.5%	3.5%	37.1%[activator]	0.9%	/	4.7%
Cc1nc2ccc(NS(=O)(=O)c3c(C)c(C)cc(C)c3C)cc2s1	-51.3%	?	/	5.1%	10.5%	-13.5%	?	2.7%
Cc1cc(C)cc(N2C(=O)N(Cc3cc(=O)n4ccccc4n3)c3ccccc3S2(=O)=O)c1	/	?	/	?	-20.0%	-9.4%	/	/
CN(Cc1ccco1)S(=O)(=O)c1ccc2c(c1)CCN2C(=O)CCC(=O)O	4.5%	6.5%	4.5%	1.1%	-14.2%	-4.3%	15.0%	-21.8%
COc1ccc(S(=O)(=O)NC(N)=NCCc2ccc(OC)c(OC)c2)cc1C	/	9.9%	1.6%	/	-8.2%	/	21.4%[46.1 µM]	0.1%
O=C(/C=C/c1cn(CC(O)CN2CCCCCC2)c2ccccc12)c1ccc(Br)cc1 (stereo unspecified)	/	?	/	?	-22.4%	-10.6%	?	/
Cc1ccc(NCc2nnc(SCC(=O)c3ccccc3)n2Cc2ccco2)c(C)c1	4.8%	?	-6.9%	-4.3%	6.7%	1.5%	-25.4%[46.1 µM]	-7.5%
O=S(=O)(c1ccc(Br)cc1)c1nnn2c1nc(N1CCOCC1)c1sccc12	/	-10.0%[46.1 µM]	/	15.3%	-18.8%	-0.4%	/	/
COC(=O)CCc1c(C)c(C(=O)c2ccc(F)cc2)c2ccccn12	3.6%	6.4%	-11.0%	/	-21.8%	/	-13.5%[46.1 µM]	-2.1%
Cc1cc(NC(=O)CCC(=O)N(CC(=O)NCC2CCCO2)c2ccccc2)no1 (stereo unspecified)	5.3%	14.0%	-16.4%	/	-15.1%	/	20.4%[46.1 µM]	-7.0%
COC(=O)c1ccc(NC(=O)N2CCC(O)(c3cccnc3)CC2)cc1	-1.5%	33.1%	6.7%	0.5%	0.0%	4.5%	-24.9%	-13.7%
CS(=O)(=O)Nc1ccc(C2=NN(C(=O)c3ccco3)C(c3ccccc3)C2)cc1 (stereo unspecified)	5.9%	?	-3.9%	-7.3%	-12.3%	-7.5%	?	1.3%
COc1ccc(-n2c(-c3ccco3)nc3c(cnn3-c3ccc(Cl)cc3)c2=O)cc1	/	?	/	4.3%	-4.1%	-4.4%	?	/
Cc1cc(NC(=O)c2ccco2)c(=O)n(Cc2c(F)cccc2Cl)c1	-2.6%	?	-0.4%	/	8.2%	/	-14.0%[46.1 µM]	1.9%
CCCOC(=O)NC(CC)COC(=O)Nc1cc(C)ccc1C (stereo unspecified)	-6.2%	-5.6%	-5.0%	-1.8%	0.0%	2.2%	-0.5%	7.8%
Cc1cc(OCCOc2cccc3cccnc23)c(C)cc1Cl	10.0%	-3.3%	7.1%	-23.4%	-15.7%	-8.0%	-18.5%	-16.8%
O=C(c1cccc(Oc2ccc([N+](=O)[O-])cc2Cl)c1)N1CCOCC1	-6.9%	-18.2%	0.4%	/	?	/	-23.5%	13.6%
COc1ccc(N=Cc2c(O)n(Cc3cccs3)c(=O)[nH]c2=O)cc1	-3.5%	/	-0.1%	/	0.6%	/	/	9.9%
O=C(c1cccc(S(=O)(=O)NCc2ccccc2)c1)N1CCCC1	7.2%	0.6%	0.5%	/	20.2%	/	-2.9%[46.1 µM]	1.8%
CCOC(=O)c1c(C)oc2ccc(NS(=O)(=O)c3ccc4c5c(cccc35)C(=O)N4)cc12	-2.7%	-0.3%	-1.9%	13.2%	-5.1%	-4.5%	?	13.9%
CCC/C(=N\NC(=O)c1ccco1)c1ccc(Cl)s1	-11.6%	/	?	/	-21.1%	/	/	-17.6%
CC(C#N)Sc1ncnc2sc(-c3ccccc3)cc12 (stereo unspecified)	-3.5%	-10.7%	-1.3%	/	2.9%	/	0.2%[46.1 µM]	-1.8%
CC1CCCCN1C(=O)Cn1c(=O)n(CCC(=O)NCc2ccco2)c(=O)c2sccc21 (stereo unspecified)	3.5%	-23.1%	3.4%	-8.4%	12.7%	3.4%	-0.5%&0.2%	-21.0%
Cc1ccc(NC(=O)Nc2cccc(C(F)(F)F)c2)nc1	4.3%	-0.9%	9.3%	/	5.4%	/	?	-6.7%
Cc1cccc(NC(=O)C2(c3ccc([N+](=O)[O-])cc3)CCCC2)c1	6.0%	11.3%	-7.4%	-1.9%	-11.2%	-3.5%	?	-8.9%
COc1cccc(OC)c1C(=O)N1CCN(c2ccccn2)CC1	-2.3%	1.3%	/	1.8%	/	2.6%	5.5%	2.1%
